# Compound activity (PubChem)
# WNV protease inh: inhibitors of WNV NS2B-NS3 protease, primary screen, biochemical, fluorogenic substrate. z-score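 (tested at a level between 10 and 100 µM)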. 65,000 tested, 0.18% active. Genome polyprotein (West Nile virus), P06935. fluorogenic substrate Ex360/Em465; stronger effect = lower value;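 active = z-score at -3 or under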;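 note: score is relative to mean and spread of the compound wells of a plate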
# Target sequence (P06935 1371-1501 limits assumed): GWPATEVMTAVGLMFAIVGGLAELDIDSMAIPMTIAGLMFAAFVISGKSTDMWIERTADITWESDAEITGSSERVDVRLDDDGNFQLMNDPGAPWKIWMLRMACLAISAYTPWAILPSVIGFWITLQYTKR
# Target sequence (P06935 1502-1679 limits assumed): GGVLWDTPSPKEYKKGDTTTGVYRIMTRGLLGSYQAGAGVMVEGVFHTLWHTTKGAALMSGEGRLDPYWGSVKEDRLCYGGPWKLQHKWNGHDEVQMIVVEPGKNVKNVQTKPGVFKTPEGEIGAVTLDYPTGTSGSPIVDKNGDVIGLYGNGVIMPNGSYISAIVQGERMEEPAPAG
# Hsc70 ATP site: Hsc70 inhibitors, probe displacement, primary screen, biochemical, fluorescence polarization (AID 568); displacement, % at 20 µM; hits with a dose series show IC50 in µM; Hsc70 fluorescence polarization, probe displacement; higher % means a stronger effect; strong numbers were not always called active; 83,000 tested, under 10 active;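 active = displacement above 50% without optical interference and an IC50 on retest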;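 note: ATPase domain with a fluorescein-tagged ATP probe; 0% = vehicle and 100% = excess ADP; read after one hour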
# MT1-MMP promoter: inhibitors of MT1-MMP promoter transcription, cell-based, luciferase reporter, luminescence (AID 618) | MT1-MMP promoter luciferase reporter cells, luminescence | calls from a first round at 10 µM; hits with a dose series show EC50 in µM | 87,000 tested, 0.62% active;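 active = over half of the reporter light lost at 10 µM or EC50 under 50 µM; inactive = the rest and hits that failed the dose series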;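 note: actives suppress MT1-MMP promoter-driven transcription so potencies describe inhibitors; HT1080 fibrosarcoma cells; overnight exposure; toxic or luciferase-blocking compounds were not removed from the actives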
# The depositor's hits bear a star; i = inactive; . = no result given; + = active, no number. A portion of the library, so the mix of outcomes need not match the whole.
# Start of the data: the first 2 records (preview)
# Below each compound – WNV protease inh | Hsc70 ATP site | MT1-MMP promoter
COCCNC(=O)CN(C(=O)CCC(=O)Nc1cc(C)on1)c1ccccc1C
    0.2 | 4.9% | i
CCN(CC)S(=O)(=O)c1ccc(C(=O)NCc2nnc(SCC(=O)OC)n2C)cc1
    -1.1 | -0.9% | i

# This part in full, from the first entry:
# Below each compound – WNV protease inh | Hsc70 ATP site | MT1-MMP promoter
COCCNC(=O)CN(C(=O)CCC(=O)Nc1cc(C)on1)c1ccccc1C
    0.2 | 4.9% | i
CCN(CC)S(=O)(=O)c1ccc(C(=O)NCc2nnc(SCC(=O)OC)n2C)cc1
    -1.1 | -0.9% | i
CCOC(=O)N1CCN(C(=O)CSc2nc(-c3cccc(C)c3)ns2)CC1
    -0.42 | -5.1% | i
COc1ccc(CN(C(=O)c2cc3ccccc3oc2=O)C2CCCCC2)cc1OC
    . | 0.1% | i
CCc1c(C)c2ccc(O)c(CN(C)C)c2oc1=O
    7.7 | -4.3% | i
CN(C)S(=O)(=O)c1ccc(C(=O)Nc2ccccc2F)cc1
    . | 8.1% | i
COc1ccc(N2CCN(CCNS(=O)(=O)c3cccc4nsnc34)CC2)cc1
    -0.58 | -0.2% | i
C=CCn1c(SCC(=O)Nc2cc(OC)c(NC(=O)c3ccco3)cc2OC)nnc1-c1ccncc1
    . | -3.7% | i
C=CCn1c(C)cc(C(=O)CSc2nnc3c(Cl)cc(Cl)cn23)c1C
    . | -0.7% | i
Cc1ccc2[nH]c(=O)c(CN(Cc3ccco3)S(=O)(=O)c3c(C)ccc4nsnc34)cc2c1
    -0.15 | -4.7% | i
O=c1[nH]cnc2nn(-c3ccccc3)nc12
    -0.92 | 0.7% | i
CCn1c(-c2cc3ccccc3cc2O)n[nH]c1=S
    . | -0.6% | i
O=C(C1CCCCC1)N(Cc1nc2sc3c(c2c(=O)[nH]1)CCCC3)Cc1cccs1
    -0.77 | 2.5% | i
CC1=CC(=O)C=C(C)C1=NOS(=O)(=O)c1ccccc1
    . | 5.4% | +
CCCn1c(C(O)c2ccc(OCC)cc2)nc2ccccc21 (stereo unspecified)
    1.2 | 0.7% | i
O=c1c2ccccc2c(/C=N/n2cnnc2)c(O)n1-c1ccccc1
    -0.5 | 8.0% | i
CC1CN(CC(O)COc2ccc(C(=O)c3ccccc3)cc2)CC(C)O1 (stereo unspecified)
    0.0025 | -1.6% | i
CCN(CC)S(=O)(=O)c1cc(C(=O)NC2CCCCC2)ccc1C
    -0.3 | 0.8% | i
CCCCCN(C(=O)NC(=O)Nc1ccccc1OC)S(C)(=O)=O
    -0.87 | 3.8% | i
Clc1ccc2c(c1)-c1nnc(Br)n1-c1ccccc1S2
    . | -0.8% | i
NC(=O)C1C(c2ccccc2)=C1c1ccccc1
    -0.08 | -2.6% | i
COc1ccccc1CNC(=O)COC(=O)C1=COCCO1
    -0.7 | 0.9% | i
CCC(=O)c1cccc2c1N=CC1=C(CC(C)(C)CC1=O)N2
    0.05 | 3.1% | i
Cc1c(NC(=O)CCCCCN2C(=O)C3C4C=CC(C4)C3C2=O)c(=O)n(-c2ccccc2)n1C (stereo unspecified)
    0.45 | 0.0% | i
CN(Cc1nc2ccccc2c(=O)[nH]1)CC(O)COCc1ccco1 (stereo unspecified)
    0.29 | -0.1% | i
Cn1c(CSCc2ccc(Cl)cc2)nnc1SCC(=O)Nc1nccs1
    . | -1.6% | i
O=C(Nc1cccc2nsnc12)c1ccc(F)cc1
    0.53 | -4.8% | i
CCOC(=O)C(NCc1ccc(F)cc1)(NC(=O)c1ccccc1)C(F)(F)F (stereo unspecified)
    . | -1.8% | i
COc1ccc(S(=O)(=O)N(C)CC(=O)NCc2cccnc2)cc1
    1.8 | 3.1% | i
Fc1ccc(Cn2nnc(-c3ccc(CN4CCOCC4)cc3)n2)cc1
    0.62 | -0.8% | i

# An excerpt from above, showing only WNV protease inh and MT1-MMP promoter.
SMILES | WNV protease inh | MT1-MMP promoter
O=C(Nc1cccc2nsnc12)c1ccc(F)cc1 | 0.53 | i
CCOC(=O)C(NCc1ccc(F)cc1)(NC(=O)c1ccccc1)C(F)(F)F (stereo unspecified) | . | i

# Next section.
# Below each compound – WNV protease inh | Hsc70 ATP site | MT1-MMP promoter
CC(C)NC(=O)Cn1cnc2c1c(=O)n(C)c(=O)n2C
    0.42 | 1.7% | i
CCN(CC)CCn1c(=S)[nH]c2cc3c(cc2c1=O)OCO3
    -0.71 | 6.4% | i
CCC1Oc2ccc(C)cc2N(CC(=O)NCCc2ccc(OC)c(OC)c2)C1=O (stereo unspecified)
    0.36 | -1.4% | i
Cc1ccc2cc(C#N)c(N3CCCN(S(=O)(=O)c4ccccc4)CC3)nc2c1C
    . | 0.2% | i
O=C(Cn1ccc2ccccc2c1=O)NCCC(=O)N1CCN(c2cccc(Cl)c2)CC1
    . | -0.4% | i
OCCN1CCN(C(=S)c2ccc(Cl)cc2)CC1
    -0.55 | 4.0% | i
CCC(=O)N1CCCc2cc(S(=O)(=O)N3CCN(c4ccccn4)CC3)ccc21
    0.25 | 1.8% | i
Cc1cc(C)n(-c2c(F)c(F)c(CN3CCCCC3)c(F)c2F)n1
    1.1 | 2.9% | i
CCOc1ccc(C2C3=C(CCCC3=O)Nc3nc(C(F)(F)F)nn32)cc1OC (stereo unspecified)
    -1.4 | 4.7% | i
COC(=O)c1c(NC(=O)c2c(C)noc2C)sc2c1CCCCCC2
    -0.6 | -0.2% | i
COC(=O)c1cc(Br)c(=O)n(-c2cc(C)on2)c1
    -0.44 | 2.5% | i
CS(=O)(=O)c1ccc2nc(NC(=O)CN3CCCCCC3)sc2c1
    -0.08 | -11% | i
CC(C)C(c1nnnn1C1CCCCC1)N1CCc2ccccc21 (stereo unspecified)
    . | 1.6% | i
Cc1ccc(Cl)cc1N1CCN(Cc2nc3c(c(=O)[nH]c(=O)n3C)n2CCc2ccccc2)CC1
    -0.85 | -4.1% | i
CCOc1cccc(N2C(=O)CC(N(CCc3ccc(OC)c(OC)c3)C(=O)CC)C2=O)c1 (stereo unspecified)
    0.02 | 1.9% | i
O=C(Nc1ccc(NC(=O)C2CC2)nc1)c1ccccn1
    -0.03 | 0.8% | i
CCCOc1ccccc1-n1sc2c(c1=S)-c1cc(OC)cc3c1N(C(=O)C3=O)C2(C)C
    . | 0.2% | i
COC(=O)c1sccc1NC(=O)CN1CCN(c2ccc(F)cc2)CC1
    -0.2 | -4.1% | i
Cc1nc(NC(=O)CN(C)S(=O)(=O)c2ccc(Br)cc2)sc1C
    . | 0.9% | i
CCCCOCCCNC(=O)c1ccccc1OCC
    -0.24 | -2.7% | i
CC1CC(C)(C)N(C(=O)NC2CCCCC2)c2ccccc21 (stereo unspecified)
    . | -0.3% | i
CSc1ccccc1NC(=O)c1ccccc1N(Cc1ccccc1)S(C)(=O)=O
    . | 6.2% | i
Cn1ncc(Cl)c1C(=O)Nc1sc2c(c1C(N)=O)CCC2
    . | -1.5% | i
Cc1cc(C)nc(NS(=O)(=O)c2cccs2)c1
    -0.67 | -2.8% | i
CC(CC1C(C#N)=C(N)SC(N)=C1C#N)c1ccccc1 (stereo unspecified)
    -0.41 | -37% | i
O=C1OCCC1Sc1nnc(-c2ccc3c(c2)OCO3)n1-c1ccccc1 (stereo unspecified)
    -0.17 | 2.6% | i
CCOc1ccc(N(CC(=O)NCCCOC)S(C)(=O)=O)cc1
    1.4 | -2.9% | i
Cn1c(=O)[nH]c(=O)c2c1nc(CN1CCN(c3ccc(F)cc3)CC1)n2CCCc1ccccc1
    -0.59 | -8.1% | i
O=C(Cc1cccs1)N1CCCC(c2nc(-c3ccc(S(=O)(=O)N4CCCC4)cc3)no2)C1 (stereo unspecified)
    -0.47 | -2.3% | i
Cc1cc(C)c2[nH]c(=O)c(C(c3nnnn3CC3CCCO3)N3CCC(C)CC3)cc2c1 (stereo unspecified)
    -0.04 | -4.1% | i
COC(=O)CCC(=O)Nc1ccc(S(=O)(=O)N2CCCCCC2)cc1
    -0.73 | -6.6% | i
CCNC(=O)Nc1cc2nc(C)n(Cc3ccc(Br)cc3)c2nc1C
    0.34 | -1.1% | i
CC1CCCCN1Cc1ccc(N)cc1 (stereo unspecified)
    . | -4.1% | i
COCCNC(=O)c1ccc(N(C)S(=O)(=O)c2ccc(OC)c(OC)c2)cc1
    -1.7 | -4.5% | i
CCOc1ccccc1N=C1NC(=O)CS1
    -0.56 | 5.6% | i
CC(=O)Nc1cc(S(=O)(=O)C(F)(F)F)ccc1Cl
    -0.25 | -2.5% | i
CCOc1ccc2[nH]c(=O)c(C(c3nnnn3C3CCCCC3)N3CCN(C)CC3)cc2c1 (stereo unspecified)
    1.2 | 2.2% | i
CN1CCN(Cc2c(O)ccc3c(-c4ccccc4)cc(=O)oc23)CC1
    -0.06 | 1.6% | i
CC(=O)c1ccc(Nc2ncnc3c2oc2ccccc23)cc1
    -0.59 | -26% | i
COC(=O)c1c(C(=O)NCc2ccccc2)ncn1CC(O)COc1ccccc1 (stereo unspecified)
    -0.25 | -1.7% | i
CC1CCN(c2nc3c(c(=O)[nH]c(=O)n3C)n2CCSc2nc3ccccc3o2)CC1
    1.8 | 1.2% | i
C=CCn1c(SCC(=O)Nc2ccccc2OC)nnc1-c1ccco1
    0.07 | -6.8% | i
Cc1noc(C)c1S(=O)(=O)NCc1ccc2c(c1)OCO2
    0.22 | -0.6% | i
CC1C(c2ccccc2)N(C)CCC12NC(=O)NC2=O (stereo unspecified)
    -0.22 | 2.7% | i
CCN1CCN(Cc2c(OC)ccc3ccccc23)CC1
    -0.34 | 0.1% | i
CCNc1oc(COc2ccccc2F)nc1C#N
    -0.09 | 0.5% | i
CCOc1ccccc1OCc1nn2c(-c3ccc(C)cc3)nnc2s1
    -0.11 | 3.4% | i
CC(=O)NS(=O)(=O)c1ccccc1
    -0.16 | -2.9% | i
CCOC(=O)N1CCN(CC(=O)Nc2ccc(Oc3ccccc3)cc2)CC1
    . | -0.4% | i
CCOC(=O)C(CSCC(=O)c1ccc(Br)cc1)NC(=O)OC(C)(C)C (stereo unspecified)
    . | 1.6% | i
COCCN(CC(=O)NCC1CCCO1)C(=O)CCC(=O)Nc1cc(C)ccn1 (stereo unspecified)
    . | -4.4% | i
Cc1cc(C(F)F)n2nc(C(=O)Nc3cccc(C(F)(F)F)c3)nc2n1
    0.97 | -2.2% | i
CCOc1cccc(Oc2ccc(C(F)(F)F)cn2)c1
    0.8 | 7.0% | i
Cc1cccc(NC(=O)C2CC(=O)OC23CCCCC3)c1 (stereo unspecified)
    . | -4.3% | i
COc1cccc(-n2nnnc2SCC(=O)Nc2ccc(C(C)=O)cc2)c1
    . | -5.2% | i
CCc1c(C)[nH]c2ccccc2c1=O
    0.78 | -4.3% | i
COc1ccc(S(=O)(=O)N2CCC(C(N)=O)(N3CCCCC3)CC2)cc1
    0.87 | 2.4% | i
Cc1oc(C(=O)O)cc1CSCc1ccoc1C(=O)O
    -0.42 | 7.2% | i
CCOC(=O)N1CCN(C(=O)CSc2nnc(C3COc4ccccc4O3)o2)CC1 (stereo unspecified)
    1.1 | -0.9% | i
O=[n+]1c2c(n([O-])c3cc(F)c(N4CCCC4)cc31)CCCC2
    -1 | 16% | i

# Continued.
# Below each compound – WNV protease inh | Hsc70 ATP site | MT1-MMP promoter
CCOC(=O)C1=C(CSc2nccn2C)NC(=O)NC1c1cc(C)ccc1C (stereo unspecified)
    . | 2.5% | i
Cc1ccc2c(c1)NC(=O)C(CC(=O)NCCN(CC(C)C)CC(C)C)O2 (stereo unspecified)
    0.51 | 1.1% | i
CN(C)S(=O)(=O)c1ccc2[nH]cc(/C=C/c3nc4ccccc4c(=O)n3-c3ccccc3)c2c1
    . | -0.2% | i
Cc1sc2ncnc(Oc3ccc(-n4ccnc4)cc3)c2c1C
    -0.0022 | -4.3% | i
Cc1ccc(C(=O)OCC(=O)Nc2ncc(C(F)(F)F)cc2Cl)cc1NC(=O)c1ccco1
    . | 1.6% | i
COc1ccccc1C(=O)NC(=Nc1nc2ccccc2o1)NC(=O)c1ccccc1OC
    -1.6 | -6.0% | i
COC(=O)COc1ccc(S(=O)(=O)NCc2cccnc2)cc1
    -0.82 | 0.8% | i
OCCN1CCOCCN(CCO)CCN(CCO)CC1
    3.6 | 3.1% | i
Cc1cc2c(c(=O)n1Cc1cccnc1)C(c1ccc(F)cc1)C(C#N)=C(N)O2 (stereo unspecified)
    0.03 | -5.4% | i
Cc1cc(NCCO)nc(N2CCOCC2)n1
    . | 7.2% | i
O=C(COC(=O)c1cccc(S(=O)(=O)N2CCOCC2)c1)Nc1nc(-c2ccccc2Cl)cs1
    . | 1.7% | i
Cc1ccc(CSC2=NCCN2C(=O)c2ccco2)cc1
    -0.14 | -0.3% | i
Cc1cc2ccccc2n2c(SCC(=O)NCc3cccs3)nnc12
    . | -2.5% | i
Cc1ccc(C)n1-c1ccccc1N
    . | 3.3% | i
CCc1nnc(NC(=O)CSc2nnc(-c3ccccc3OC)n2-c2ccc(C)cc2)s1
    . | 4.2% | i
COC(=O)/C(=C1/Oc2cc3c(cc2S1)OCO3)C(F)(F)F
    0.03 | -2.0% | i
O=C(CSc1nccc(=O)[nH]1)N1CCCc2ccccc21
    -0.28 | -4.3% | i
O=C(CSc1nnc(-c2ccncc2)n1Cc1ccco1)Nc1ccccc1Cl
    0.02 | -1.0% | i
CC1(C)NC(=O)N(CCOc2cccc(Cl)c2Cl)C1=O
    2.2 | -1.5% | i
